# Compound activity from PubChem BioAssay.
# AID504770: growth inhibition of E. coli YBA685, primary screen, V. cholerae RctB inhibitors; E. coli YBA685 rctB-dependent plasmid, OD600 growth, 3 h; hits give low values; z-score (no concentration beside the values); 130,000 compounds, 0.27% hits; AID 504770, 2011;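 active = z-score under -2 on both plates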;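 note: wells of about 30 µL received 100 nL stock; score is relative to mean and SD of the test wells; the first replicate is given; strong numbers were not always called active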
# Ba CapD inh: Bacillus anthracis CapD inhibitors, primary screen, biochemical, fluorescence intensity | AID 492967, 2010 | 140,000 compounds, 0.23% hits | purified CapD enzyme, fluorescence intensity read-out; hits give low values; some hits fall short of the stated cut | z-score (no concentration beside the values);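 active = z-score under -4 in either of two replicates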;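 note: stock transfer was 100 nL into about 40 µL; score is relative to mean and spread of the plate; one replicate is shown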
# Starred values were filed as active, the others as inactive; . = not tested or not shown.
SMILES,AID504770,Ba CapD inh
N#C/C(=C(/O)CSc1nnc(N)s1)c1nc2ccccc2s1,-0.55,.
N#Cc1c(/N=C/c2c(F)cccc2Cl)oc(-c2ccccc2)c1-c1ccccc1,.,3.1
O=C(Cc1ncon1)Nc1ccc(F)cc1F,-1.2,-0.01
O=c1cc(N2CCc3ccccc3C2)[nH]c(=O)n1Cc1ccc(F)cc1,0.3,23
COC(=O)C1=C(C)NC(C)=C(C(=O)OC)C1c1ccc(-c2ccccc2C(F)(F)F)o1,0,11
O=C(Nc1nnc(-c2ccccc2)o1)C(c1ccccc1)c1ccccc1,1.3,.
O=C(Cn1ccc(=O)[nH]c1=O)OCc1c(Cl)cccc1Cl,-0.3,.
CCn1c(=O)c(=O)[nH]c2cc(C(=O)NCC(c3ccc(OC)cc3)N(C)C)ccc21 (stereo not drawn),0.15,.
CCOc1ccc(NC(=O)c2cc(S(=O)(=O)N3CCN(c4ccccc4OC)CC3)ccc2F)cc1,.,-0.59
Cn1c2ccccc2c2cc(C3Nc4ccccc4C(=O)N3O)ccc21 (stereo not drawn),1.3,-0.06
CSc1nc2c(c(=O)n1Cc1ccccc1)SC(C)C2 (stereo not drawn),-0.7,.
N#CC1=C(S)N(c2ccccc2)C(c2ccc(-c3cccc(Cl)c3)o2)NC1=O (stereo not drawn),-0.85,.
O=C(O)C1CC(c2ccccc2)=C(c2ccccc2)CC1C(=O)c1ccccc1 (stereo not drawn),-0.5,-0.53
Cc1oc2ccc(O)c(CN3CCCCC3)c2c1C(=O)NCc1ccccc1,-1.1,-0.035
Cc1ccc(-c2[nH]c3ccccc3c2SCCN)cc1,-0.2,63
CC1=C(C(=O)Nc2ccccc2)C(c2ccc(OCc3ccccc3)cc2)n2nnnc2N1 (stereo not drawn),.,-0.67
CCCCn1c(SCC(=O)N2c3ccccc3Sc3ccccc32)nc2c1c(=O)n(C)c(=O)n2C,0,.
CSC1=C(C#N)C(c2ccc(C(C)C)cc2)C2=C(CCCC2=O)N1 (stereo not drawn),-0.1,7
C=CCNC(=O)COc1ccc(C)cc1,-0.3,-0.57
Cc1ccc(C2=NN(C(=O)COc3cccc(-n4cnnn4)c3)C(c3ccco3)C2)cc1 (stereo not drawn),0.2,.
COc1ccc2c(c1)N(C)/C(=C1/SC(=S)N(Cc3ccccc3)C1=O)S2,.,-1.1
CCOC(=O)c1sc2nc(C)n(CC(=O)Nc3ccc(OCC)cc3)c(=O)c2c1C,.,1.6
O=C(Nc1ccccc1Cl)c1ccc2c3c(onc13)-c1ccccc1C2=O,.,-0.24
CCCc1ccc(S(=O)(=O)N2CCC2)cc1,.,0.81
CN1CCN(C(c2ccccn2)c2c(-c3ccccc3)n(O)c3ccccc23)CC1 (stereo not drawn),-0.15,.
C=CCOc1ccccc1/C=C1/SC(N2CCN(C)CC2)=NC1=O,-0.7,.
Cn1cccc1C(=S)N=P(N1CCOCC1)(N1CCOCC1)C(C)(C)C,-0.45,.
Cc1c(-c2ccccc2)sc(NC(=O)C2CC(=O)N(Cc3ccco3)C2)c1C(=O)N1CCOCC1 (stereo not drawn),-0.65,.
CCc1ccc(NC(=O)CSC2=C(C#N)C(c3ccccc3)C(C(=O)Nc3ccccc3OC)=C(C)N2)cc1 (stereo not drawn),.,-0.74
CCCCN(C)C(=O)Cn1nc(CC)n2c(cc3sccc32)c1=O,-0.65,0.23
CC1=CC(=O)C(N2CCN(C(c3ccccc3)c3ccccc3)CC2)=CC1=O,0,.
CN(C)c1ccc(NC(=O)Nc2ccccc2F)cc1,-0.15,0.27
S=C1SCN(Cc2ccncc2)CN1Cc1ccncc1,.,0.76
O=C(Nc1ccccc1)Nc1ccc(OC(F)F)cc1,-0.95,-1.1
O=C(O)c1c(Cl)nc2sccn12,1.1,0.42
O=S1(=O)c2cccc3cccc(c23)N1Cc1ccc(F)cc1,.,-0.12
O=C(CCC1CCCCC1)Nc1ccc(-c2cn3cccnc3n2)cc1,-0.5,-4.5*
Cc1ccc(NC(=O)C(C)Sc2nc(N)cc(=O)[nH]2)cc1 (stereo not drawn),-0.75,-0.51
CC1=NC=CC2NC(=O)C(C#N)=CC12 (stereo not drawn),0.1,2.6
Cc1nc(N2CCN(Cc3ccc4c(c3)OCO4)CC2)c2cc(C)sc2n1,.,-0.27
CCOc1ccc(C(=O)Nc2ccc3oc(-c4ccccc4F)nc3c2)cc1[N+](=O)[O-],.,-0.18
CC(C)Sc1nnc(NC(=O)c2ccc(F)cc2)s1,2.1,-0.94
COc1ccc(/C=C/C(=O)N(CC(C)C)CC(C)C)cc1,0.3,-0.73
O=C1N(c2ccccc2)CCN1c1ccccc1,-0.8,0.26
O=C=NC12CC3CC(CC(C3)C1)C2,1.4,.

# Overlap with the part before: 3 compounds, then new ones.
SMILES,AID504770,Ba CapD inh
COc1ccc(/C=C/C(=O)N(CC(C)C)CC(C)C)cc1,0.3,-0.73
O=C1N(c2ccccc2)CCN1c1ccccc1,-0.8,0.26
O=C=NC12CC3CC(CC(C3)C1)C2,1.4,.
Cc1cc(C(=O)NN2C3CSC2CS3)no1,-0.25,9.5
COC(=O)C1=C(C)NC2=C(C(=O)CCC2)C1c1ccc2c(c1)CCC(C)(C)O2 (stereo not drawn),-0.1,27
Cc1ccccc1N=CC=Nc1ccccc1C,-0.1,-0.25
C=CCNC(=S)NC1(C)CCS(=O)(=O)C1 (stereo not drawn),-0.1,-0.58
CSc1nc(N)c(C#N)s1,-0.45,-2.3
CC(=O)N1N=C(c2cc(C3CC3)nc3ccccc23)OC1c1ccc2c(c1)OCO2 (stereo not drawn),-0.2,4.4
COc1cc(OC)nc(C2CCCCC2C(=O)N2CCN(C(c3ccccc3)c3ccccc3)CC2)n1 (stereo not drawn),.,-0.49
Cc1ccc(NC(=O)/C(CN(C)C2CCCCC2)=N\O)cc1,-0.65,0.22
Cc1cc(C)nc(Nc2ccc(NC(=O)C(C)(C)C)cc2)n1,.,-0.095
CC(=O)N1CCN(c2ccc(OC[C@H]3CO[C@](Cn4ccnc4)(c4ccc(Cl)cc4Cl)O3)cc2)CC1,.,-0.72
CCOC(=O)N1CCC(NC(=O)CCC(=O)N2CCOc3ccccc32)CC1,-0.95,-0.61
CCn1c(C(=O)O)cc2oc(C)cc21,0.65,-0.1
CC(C)C(C(=O)O)N1C(=O)C2C3C=CC(C3)C2C1=O (stereo not drawn),-1.1,-0.65
CCOC(=O)c1c(NC(=O)c2nc3ncccn3n2)sc2c1CCC(CC)C2 (stereo not drawn),-0.1,0.6
CN(C)/C=N/C1N=C(C2CC2)N(C)C(=O)N1 (stereo not drawn),0.75,0.34

# Three structures already listed, arranged by count of non-hydrogen atoms, descending.
SMILES,AID504770,Ba CapD inh
CC(=O)N1CCN(c2ccc(OC[C@H]3CO[C@](Cn4ccnc4)(c4ccc(Cl)cc4Cl)O3)cc2)CC1,.,-0.72
Cc1ccc(NC(=O)/C(CN(C)C2CCCCC2)=N\O)cc1,-0.65,0.22
CCn1c(C(=O)O)cc2oc(C)cc21,0.65,-0.1

# Following part.
SMILES,AID504770,Ba CapD inh
O=C(NC(c1ccc([N+](=O)[O-])cc1)c1cc(Cl)c2cccnc2c1O)c1cccnc1 (stereo not drawn),.,-0.77
CS(=O)(=O)c1ccc(CN(C(=O)c2cccc(C(F)(F)F)c2)C2CCN(Cc3ccccc3)CC2)cc1,.,-0.56
N#C[C@@H]1[C@@H](C(=O)c2ccc(F)cc2)N2C=Cc3ccccc3[C@@H]2[C@@]1(C#N)C(=O)c1ccccc1,-0.9,7.4
FC(F)(F)c1nc(N2CCCCC2)nc2c1CCCCC2,-0.4,2.2
CCN(CCS(=O)(=O)c1ccc(Cl)cc1)S(=O)(=O)c1ccc(C)cc1,-0.4,-0.26
O=C(Oc1cc(=O)oc2ccccc12)c1ccccc1,-1.2,0.29
COc1cc(NC(=O)CC2OCCN(Cc3ccccc3)C2=O)cc(OC)c1 (stereo not drawn),-0.1,0.44
CC(C)(C)c1ccc(Oc2ncccc2NC(=O)c2cccs2)cc1,0.6,0.17
OCc1nc2ccccc2n1CCC1CCCCC1,0.85,-0.34
CSc1ccc(CCNC(=O)c2csc3c2CCCC3)cc1,-0.4,13
Cc1cc([N+](=O)[O-])nn1CC(=O)Nc1cc(Oc2cccc(Cl)c2)cc([N+](=O)[O-])c1,.,0.025
COc1ccc(-n2nc(C(=O)NCc3cc(OC)ccc3OC)c3c4ccccc4n(C)c3c2=O)cc1,-0.55,-1.1
CCOC(=O)C1=C(C)N=c2s/c(=C\c3cc(Br)ccc3OC(C)=O)c(=O)n2C1c1ccc(OC(C)=O)cc1 (stereo not drawn),.,-0.16
O=C(COC(=O)c1ccc2c(c1)OCO2)NC1C2CC3CC(C2)CC1C3 (stereo not drawn),-0.4,.
CCCCCCCCCCCCCC#CC(O)C(N)CO (stereo not drawn),.,-0.11
O=S(=O)(Nc1cccc2nsnc12)c1cc(Cl)sc1Cl,.,-1.2
COCCCNc1nc2ccc(C(=O)c3ccccc3)cc2n2cnnc12,-0.1,0.17
O=C(NCCc1c[nH]c2ccc(O)cc12)OCc1cccc(F)c1F,.,-0.75
O=S1(=O)NC(=NCc2ccco2)c2ccccc21,-1.2,-0.29
CCN(CC)c1ccc(C2NC(=O)NC(C)=C2C(=O)OCc2ccc3c(c2)OCO3)cc1 (stereo not drawn),.,5.7
COCc1cc(C)nc2sc3c(=O)n(-c4ccc([N+](=O)[O-])cc4)nnc3c12,.,1.6
O=[N+]([O-])c1ccc2c(c1)C1C=CCC1C(c1ccc(S(=O)(=O)N3CCOCC3)cc1)N2 (stereo not drawn),.,-0.71
CCCN(CC1CC1)C(=O)CSc1n[nH]c(=O)n1CC,-0.2,.
O=C(c1c[nH]c2ccccc12)N1CCCC1,-0.05,-0.92
O=S(=O)(CC(O)COc1ccc(F)cc1Cl)c1ccc(Cl)cc1 (stereo not drawn),.,-0.16
Cc1ccccc1OCC(=O)OCC(=O)NC1CCCCC1,0.65,.
Cc1c(CN2CCN(Cc3ccccc3)CC2)sc2ccccc12,0.05,-0.025
O=S(=O)(c1cc(C(F)(F)F)ccc1Cl)N1CCN(Cn2c(CO)nc3ccccc32)CC1,-1,.
O=C1CCCN1CC#CCN1CCCC1,0.2,0.15
O=C(N/C(=C\c1ccc(-c2ccc(Cl)cc2Cl)o1)C(=O)N1CCCC1)c1ccccc1,-0.25,0.57
COc1ccc(CC(=O)O)c(OC)c1,-0.9,.
COc1cc(NC(=O)c2sc3ncnc(N4CCN(c5ccccn5)CC4)c3c2C)cc(OC)c1OC,.,-1.2
CSc1nc(N)nc(SCC(=O)Nc2cccc(C(F)(F)F)c2)c1C#N,.,-0.25
N#Cc1ccc(OC(=O)c2ccc(-c3cccc(C(F)(F)F)c3)o2)cc1,-0.2,.
NC(=O)CN(c1ccccc1)C1SC(=O)NC1=O (stereo not drawn),-0.2,.
O=C(CN1CCNCC1)N1CCCCC1,0.4,.
CCN(CC)C(=O)NCc1noc2ccccc12,0.45,-0.17
CC(CC(=O)O)C(=O)c1ccc(Cl)cc1 (stereo not drawn),-2.5,-0.045
Cc1nn2c(c1-c1ccc(Cl)cc1)N=C(c1ccco1)CC2c1ccccc1 (stereo not drawn),-0.4,-2.6
O=C1NC(c2cccc(F)c2)=N/C1=C\C=C\c1ccccc1,0.6,-0.23
COc1ccc(CCNC(=O)C(Cc2ccccc2)n2cccc2)cc1OC (stereo not drawn),-0.95,-1
CCCc1cc(=O)[nH]c(SCC(=O)N(C)c2ccccc2)n1,-0.55,.
COC(=O)N/N=C/c1cn(CCOc2ccc(OC)cc2)c2ccccc12,0.2,-0.095
FC(F)(F)c1nnc2c(Sc3ccccc3)nc3ccc(Cl)cc3n12,.,1.3
CC(NC(=O)c1cccc(S(=O)(=O)N(C)C)c1)C1CC2CCC1C2 (stereo not drawn),-0.25,-0.67

# Record cards, from the list above. Screens in order: AID504770	Ba CapD inh
# Record of COc1cc(NC(=O)c2sc3ncnc(N4CCN(c5ccccn5)CC4)c3c2C)cc(OC)c1OC → .	-1.2
# Record of Cc1nn2c(c1-c1ccc(Cl)cc1)N=C(c1ccco1)CC2c1ccccc1 (stereo not drawn) → -0.4	-2.6
# Record of O=C(CN1CCNCC1)N1CCCCC1 → 0.4	.
# Record of FC(F)(F)c1nnc2c(Sc3ccccc3)nc3ccc(Cl)cc3n12 → .	1.3
# Record of CC(CC(=O)O)C(=O)c1ccc(Cl)cc1 (stereo not drawn) → -2.5	-0.045

# Next section.
SMILES,AID504770,Ba CapD inh
CS(=O)(=NC(=O)Nc1ccccc1)c1ccccc1 (stereo not drawn),-0.65,-0.51
O=C(CSc1nnc(-c2ccc(Cl)cc2)n1Cc1ccccc1)NC(=O)NCc1ccco1,0.6,.
COCCn1nnnc1C(c1ccc2ncccc2c1)N1CCc2ccccc21 (stereo not drawn),-0.6,.
COC(=O)c1sc(N2CCCC2)c(C#N)c1N,-0.35,-0.34
O=C(NCc1ccco1)c1ccc(-n2nncc2-c2ccccc2)cc1,0.95,.
CC(Sc1nnc(-c2ccncc2)n1N)C(=O)c1ccc(F)c(F)c1 (stereo not drawn),-0.4,.
O=C(O/N=C1\CCS(=O)(=O)c2sccc21)c1ccc(Cl)cc1,.,0.05
Cc1cc(CN2CCCCC2)cc(C)c1O,.,-0.54
Cc1ccc2oc(=O)c3cnn(CC(=O)n4c(C)cc5ccccc54)c3c2c1,-0.4,0.36
Cc1c(N2C(=O)CSC2c2ccccc2Cl)c(=O)n(-c2ccccc2)n1C (stereo not drawn),.,-0.69
CC1CCN(C(=O)c2ccc3nc(SCc4ccc(F)cc4)n(C)c3c2)CC1,-0.1,12

# Compounds as they come; 0.37% or so of the library scored in one or more.
